# High-throughput results from PubChem BioAssay.
# D2 agonist: activates the human D2 dopamine receptor; DiscoveRx PathHunter D2 beta-arrestin, luminescence, 90 min; 100% = 57 uM dopamine signal; AID 624465; activation, % (no concentration beside the values); 360,000 compounds, 0.084% hits; in the data active = activation above about 40%; inconclusive = about 15% to 40%; inactive = below about 15%; further: compound concentration not given in the record; the text of the record calls up to 30% inactive
# Target sequence (P14416 whole entry, looked up): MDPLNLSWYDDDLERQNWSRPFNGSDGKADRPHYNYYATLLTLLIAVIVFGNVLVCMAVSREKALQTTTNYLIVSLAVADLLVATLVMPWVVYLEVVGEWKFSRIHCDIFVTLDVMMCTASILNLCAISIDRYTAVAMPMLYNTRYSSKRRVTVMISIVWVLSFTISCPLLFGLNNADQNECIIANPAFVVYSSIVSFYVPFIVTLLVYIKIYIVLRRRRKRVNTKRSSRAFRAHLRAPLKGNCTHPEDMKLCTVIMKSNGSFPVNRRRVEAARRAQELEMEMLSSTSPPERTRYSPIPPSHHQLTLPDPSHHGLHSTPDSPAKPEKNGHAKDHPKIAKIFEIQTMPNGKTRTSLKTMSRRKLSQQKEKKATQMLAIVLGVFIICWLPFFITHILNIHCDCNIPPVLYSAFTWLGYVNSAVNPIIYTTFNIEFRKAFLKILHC
#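 DiscoveRx PathHunter D2 beta-arrestin cells (2,100/well) attached overnight, then compound-stimulated 90 min at 37 C in HBSS/10 mM HEPES/0.1% Tween-20 buffer; beta-galactosidase complementation read by luminescence after 1 h at ambient temperature. Dopamine 57 uM final (EC100) as control.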
# Six1-Eya2 inh: inhibitors of human Six1/Eya2 interaction; Q15475+O00167; AlphaScreen GST-Six1/His-Eya2 binding, biochemical; active compounds read low; control for the full effect not named in the record; activity change, % (no concentration beside the values); 360,000 compounds, 0.56% hits; in the data active = activity change below about -65%; inconclusive = about -30% to -65%; inactive = above about -30%; further: on the % scale 0 is the no-effect control and ±100 the full control effect
#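 Homogeneous AlphaScreen proximity assay pairing GST-Six1 with His-tagged Eya2 (added as 5X mix: 250 nM and 500 nM) in 50 mM Tris pH 8.0, 300 mM NaCl, 1 mM TCEP. Glutathione donor and nickel acceptor beads; 1 h, 37 °C, dark.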
# PINK1 modulator: PINK1 expression modulation; PINK1 immunofluorescence, high-content cytometry, 24 h; Potency, µM (series often up to 76.6 µM), for the others: at the highest dose activation (PINK1 increase), usual class: activators; 410,000 compounds, 0.2% hits; AID 624263; active = well fitted activation curve with a large enough effect; inconclusive = small, poorly fitted or top-dose-only effect; inactive = flat fitted curve, though single readings scatter; cell line not stated here;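 further: potency means the concentration at half of the fitted maximal effect; % of control where 0% means no effect; nearly all actives have a fitted effect of over 65% in size; a mitochondrial uncoupler was the plate control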
#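 Fluorescence from anti-PINK1 antibody, together with nuclear and cell stains, was scanned on a laser-scanning cytometer. Before staining, stable-line cells were incubated 24 hours with compounds at 5 concentrations; primary antibody 12 h at 10 degrees C.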
# TRPML1 inh: blocks the human TRPML1 channel. 390,000 compounds, 0.02% hits. TRPML1-inducible cells, Ca2+ dye fluorescence, FDSS; active compounds read low; inhibition of EC80 agonist-evoked calcium signal. Q9GZU1. activity change, negative = inhibition, % (concentration not given with the values); in the data active means activity change below about -50%; inconclusive means about -30% to -50%; inactive means above about -30%;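 further: stimulus is agonist 54-4 at its EC80 concentration; on the % scale 0 is the no-effect control and ±100 the full control effect; the text of the record puts the active cut at -80%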
# Target sequence (Q9GZU1 whole entry, looked up): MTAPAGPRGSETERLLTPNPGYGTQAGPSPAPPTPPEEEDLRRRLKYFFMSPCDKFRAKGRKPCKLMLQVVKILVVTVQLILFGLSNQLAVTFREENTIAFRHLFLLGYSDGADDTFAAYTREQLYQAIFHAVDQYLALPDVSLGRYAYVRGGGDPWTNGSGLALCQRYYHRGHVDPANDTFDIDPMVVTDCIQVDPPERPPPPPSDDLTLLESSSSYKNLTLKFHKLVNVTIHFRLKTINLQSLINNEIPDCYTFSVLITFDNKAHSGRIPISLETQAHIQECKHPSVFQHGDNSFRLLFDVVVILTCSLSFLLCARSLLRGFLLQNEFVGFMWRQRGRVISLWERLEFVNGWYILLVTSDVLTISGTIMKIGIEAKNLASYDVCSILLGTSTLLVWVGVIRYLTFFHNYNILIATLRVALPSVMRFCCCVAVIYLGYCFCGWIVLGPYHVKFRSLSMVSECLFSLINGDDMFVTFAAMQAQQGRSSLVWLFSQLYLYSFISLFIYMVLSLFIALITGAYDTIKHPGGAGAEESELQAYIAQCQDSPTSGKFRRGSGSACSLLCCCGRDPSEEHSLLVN
#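 TRPML1-DL cells, Tet-induced overnight (~16 h, 37 °C) at 1,500 cells/well, were loaded with Ca8 no-wash dye plus quencher for 45-90 min at room temperature. Compounds were pinned during FDSS kinetic reading; agonist 54-4 at EC80 (4 uM final) then added.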
# TRPML1 ag: activates the human TRPML1 channel; activation, % (test concentration not listed); TRPML1-expressing cells, Ca2+ dye fluorescence, FDSS; host cell line not named in the record; reference of the full effect not given here; AID 624414; 410,000 compounds, 0.12% hits; Q9GZU1; in the data active = activation above about 50%; inconclusive = about 30% to 50%; inactive = below about 30%; further: 0% is about no effect; the text of the record puts the active cut at 80%
#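 TRPML1-DL cells, Tet-induced overnight (~16 h, 37 degrees C), loaded 45-90 min at room temperature with Ca8 no-wash calcium dye plus quencher. FDSS fluorescence: 10 s baseline, compound pin-transfer, 110 s agonist read, then EC80 54-4 (4uM final) and 110 s antagonist read.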
# CtBP-E1A blk: inhibitors of CtBP/E1A interaction | AlphaScreen GST-E1A/His-CtBP binding, 1536-well; active compounds read low; control for the full effect not named in the record | activity change, % (concentration not given with the values) | 340,000 compounds, 0.49% hits | AID 651724; in the data active means activity change below about -65%; inconclusive means about -30% to -65%; inactive means above about -30%; further: on the % scale 0 is the no-effect control and ±100 the full control effect
#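 AlphaScreen with 125 nM GST-E1A and 125 nM His-CtBP (5X stocks) in Tris pH 8.0, 300 mM NaCl, BSA, Tween 20, TCEP. Compounds preincubated 2 h at 37 deg C, then glutathione donor/nickel acceptor beads added for 1 h at 37 deg C in dark.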
# Active calls of the source: *; ? = inconclusive; . = no result given; [ ] = another dose, or the depositor's remark.
# Preview (2 entries):
smiles,CtBP-E1A blk,TRPML1 ag,PINK1 modulator,TRPML1 inh,Six1-Eya2 inh,D2 agonist
CC(C)c1ccc(C(=O)N2CCCC(c3cc(C(=O)Nc4ccccc4Cl)no3)C2)cc1 (stereo not given),1,0.3,5.6%,.,0,-8.8
CCN(CC)S(=O)(=O)c1ccc(NS(=O)(=O)c2ccc3oc(=O)[nH]c3c2)cc1,2,0.2,3.2%,11,-12,-1.8

# Results, from the first entry:
smiles,CtBP-E1A blk,TRPML1 ag,PINK1 modulator,TRPML1 inh,Six1-Eya2 inh,D2 agonist
CC(C)c1ccc(C(=O)N2CCCC(c3cc(C(=O)Nc4ccccc4Cl)no3)C2)cc1 (stereo not given),1,0.3,5.6%,.,0,-8.8
CCN(CC)S(=O)(=O)c1ccc(NS(=O)(=O)c2ccc3oc(=O)[nH]c3c2)cc1,2,0.2,3.2%,11,-12,-1.8
COc1ccccc1OCC(=O)NCC1CCCN(C(=O)c2ccccc2SC)C1 (stereo not given),-3,0.1,0.5%,5,-1,-2.1
Cc1ccc(S(=O)(=O)N2CCN(Cc3csc(C)n3)CC2)cc1,5,-0.2,0.4%,4,-1,-2.1
CCN(CC)C(=O)Cn1cc(SCC(=O)Nc2ccc(C)cc2)c2ccccc21,.,0.9,1.9%,13,.,.
CCOC(=O)C1=C(COC(=O)CNS(=O)(=O)c2c(F)cc(F)cc2Br)NC(=O)NC1C (stereo not given),7,-0.7,0.1%,11,3,-3.0
COc1ccc(Cl)cc1NC(=O)[C@@]1(CC(=O)O)CC(/C=C/c2ccccc2)=NO1,-1,0.5,-2.7%,13,3,0.0
COc1ccc(C2CC(c3cc(OC)ccc3OC)n3nnnc3N2)cc1 (stereo not given),-3,0.2,1.4%,23,-5,-3.2
Cc1ccc(S(=O)(=O)N2CCC(C(=O)N3CCCCCCC3)CC2)cc1C,-12,-0.6,-0.7%,11,3,-5.1
CCc1nc(SCC(=O)Nc2nnc(C(C)C)s2)n[nH]1,0,-0.4,1.3%,12,19,-4.0
O=C(Cn1c(=O)n(Cc2ccc(F)cc2)c(=O)c2ccccc21)NCC1CCCO1 (stereo not given),-7,-0.1,-0.5%,-3,-4,-3.1
CN(Cc1ccc(N(C)C)cc1)C(=O)c1cc2ccccc2o1,?,-0.4,1.3%,-1,?,-0.5
Cc1cccc(CSc2nnc(Cn3c(=O)sc4ccccc43)n2C)c1,-7,-0.1,0.8%,4,11,-5.1
Cc1ccc(-c2[nH]nc3c2C(c2ccc(OC(=O)N4CCOCC4)cc2)C(C#N)=C(N)O3)cc1 (stereo not given),-3,1.9,-2.4%[38.3 µM],-12,-3,-5.0
COc1ccc(S(=O)(=O)N2CCOCC2)cc1NC(=O)CN1CCCc2ccccc21,-7,1.1,5.0%,11,-1,-0.1
COc1cc(OC)c2c(C)c(Cl)c(=O)oc2c1,1,-1.2,-0.3%,-8,-2,-4.5
CC(Oc1cc2oc(=O)c3c(c2cc1Cl)CCC3)C(=O)NCCCn1ccnc1 (stereo not given),-14,-0.5,-0.4%,3,2,-1.0
CCOC(=O)c1c(C)[nH]c(C)c1S(=O)(=O)N1CCCC(C(=O)Nc2ccc(OC)c(OC)c2)C1 (stereo not given),.,-1.3,1.0%,-1,.,.
COc1ccc(/C(O)=C2/C(=O)C(=O)N(CCN(C)C)C2c2ccc(C)cc2)cc1Cl (stereo not given),0,-0.4,0.2%,0,1,-4.5
CC(C)(C)S(=O)N1Cc2ccc(CO)cc2[C@H]1CCO (stereo not given in full),8,-0.8,0.3%,-5,11,-0.4
N#CC1=C(N)OC2=C(C(=O)CCC2)C1c1cc2c(cc1Cl)OCO2 (stereo not given),-14,0.1,0.3%,2,1,5.6
O=C(Nc1nc2n(n1)C(c1ccc(F)cc1)CC(c1ccccc1)N2)c1ccco1 (stereo not given),4,1.4,1.5%,0,2,-3.3
O=C(Nc1ccccc1)Nc1ccccc1-n1ccnc1,-5,4.3,-1.1%,-12,10,-1.4
COCCNC(=O)c1cc2nc(-c3ccc(F)cc3)cc(C(F)(F)F)n2n1,8,0.1,-1.3%,-2,9,-1.7
C=C(CCO)C1=CCN(S(=O)C(C)(C)C)[C@@H]1CCO (stereo not given in full),-18,-0.4,-1.1%,-5,0,-1.7
Cc1ccc(/C=C/C(=O)Nc2cccnc2)o1,-18,0.2,0.1%,-1,-12,-9.4
CCOC(=O)c1cc(-c2csc(COc3ccccc3)n2)on1,.,-0.4,0.4%,7,9,-2.8
O=C1NNC(c2ccccc2)=N/C1=C\c1ccccc1Cl,10,0.5,2.8%,-6,-15,4.3
C=CCn1c(SCC(=O)NCc2ccccc2)nnc1-c1ccccc1O,4,0.7,.,-12,-2,-1.0
CCC1=NN(C(=O)c2cccc(Br)c2)C(O)(c2ccc(Br)cc2)C1 (stereo not given),-7,-0.3,?,-8,-9,-6.3
CN(C)CCCNc1oc(-c2ccccc2)nc1C#N,-2,0.1,-0.3%,-2,-1,-3.2
Cc1ccc2c(C)c(C(=O)N3CCN(Cc4ccc5c(c4)OCO5)CC3)oc2c1C,-6,4.7,1.3%,17,-20,8.2
CC(C)=CCCC(C)CCO (stereo not given),1,.,1.0%,.,1,-3.1
Cc1ccc(S(=O)(=O)N2CCCCC2C(=O)NCc2ccco2)cc1 (stereo not given),-19,-0.2,-0.2%,3,-17,-0.4
CN(C)C(CNC(=O)c1cc(S(=O)(=O)N2CCOCC2)ccc1Cl)c1cccs1 (stereo not given),5,-0.1,1.0%,22,2,-0.9
N#Cc1ccccc1CSc1ccc(-c2nc3ccccc3[nH]2)cn1,-1,2.0,.,-8,-2,-1.1
O=S(=O)(NCC(c1cccnc1)N1CCN(c2ccc(F)cc2)CC1)c1ccc(F)cc1 (stereo not given),2,0.3,0.9%,9,0,-5.4
Cc1ccc(C(=O)N2c3ccccc3N(Cc3ccccc3)C(=O)C2(C)C)cc1,-12,1.8,.,-5,4,-2.9
CCNC(=O)CC1C(=O)N(c2ccc(C)cc2)C(=O)N1CCc1ccc(OC)c(OC)c1 (stereo not given),2,0.7,-1.4%,-15,2,0.3
C[C@@H]1CN([C@H](C)CO)C(=O)CCCn2cc(nn2)CO[C@H]1CN(C)C(=O)OCc1ccccc1,-2,-0.5,2.2%,-15,12,13
COC(=O)c1ccccc1NC(=O)CSc1nc(C)c(Cl)c(C)c1C#N,.,-0.9,1.8%,2,.,.
COc1ccc(OCCNC(=O)c2ccc3nc(C)c(N(C)Cc4ccc(NC(C)=O)cc4)n3c2)cc1,-2,-0.8,3.5%,.,-8,2.7
NC(=O)C1CC(=O)N(c2ccc(OCc3ccc(Cl)cc3Cl)cc2)C1 (stereo not given),.,0.1,1.9%,31,0,1.6
O=C(CSc1nc(Nc2ccccc2)c2ccccc2n1)c1ccc(Cl)cc1,.,-0.3,0.0%,-12,.,.
O=C1CCC(/C=C/c2ccccc2)=NN1Cc1ccccc1Cl,7,0.0,7.3%,0,-2,-5.8
COc1ccc(Cc2nc3ccc(C(=O)NCc4cccc(C)n4)cc3o2)cc1OC,1,-0.9,1.5%,-5,-4,1.2
COc1ccc(C2c3ccc(O)cc3Oc3ncn(CCCO)c(=N)c32)cc1OC (stereo not given),-21,.,0.2%,.,1,0.7
COC(=O)c1cc(C(=O)OCC(=O)NC2CCS(=O)(=O)C2)cc([N+](=O)[O-])c1 (stereo not given),1,0.4,-1.5%,-1,-2,1.6
Cc1cccc(N2CCN(C(=O)n3ccnc3)CC2)c1C,-4,-0.7,-0.6%,7,-2,0.0
N#CC1=C(N)C(C#N)(C#N)C(c2cccnc2)C2COCC=C12 (stereo not given),1,0.6,0.0%,7,1,-7.5
Cc1nc2nc(COc3ccccc3)nn2c(C)c1Cl,3,-0.6,0.4%,1,3,-1.1
CCCCCCCCCCC[C@@H](C[C@@H]1OC(=O)[C@H]1CCCCCC)OC(=O)[C@H](CC(C)C)NC=O,4,-0.4,1.6%,-6,3,3.6
CCCCC(=O)Nc1ccc(C(=O)NNC(=O)c2ccc(C)c(Br)c2)cc1,-2,0.1,19%,7,4,-6.5
Cc1ccc(CCNC(=O)CCn2ccc3cc(S(=O)(=O)N4CCCC4)ccc32)cc1,-13,1.2,-1.3%,-20,3,4.2
COc1ccc(CC2(CO)CCN(Cc3cccc4nccnc34)CC2)cc1,2,0.0,-1.7%,-1,1,-21
COC(=O)C(C)N(C(=O)c1ccc(Cl)cc1)c1c(C)cccc1C (stereo not given),3,-0.5,1.5%[38.3 µM],8,-2,-3.3
CCCCNc1nnc(SCC(=O)N2CCN(S(=O)(=O)c3ccc4ccccc4c3)CC2)s1,-1,0.8,3.4%,0,-9,0.6
CC(=O)c1sc(-c2ccccc2)cc1N,6,2.3,-1.4%,3,2,-8.9
COC(=O)Cc1c(C)c2cc(Cl)c(OC(=O)c3ccco3)cc2oc1=O,2,-0.8,1.2%,-5,-2,-1.5
O=C(CSc1ccsc1[N+](=O)[O-])NCCc1ccccc1,7,-0.7,6.5%,14,-2,-4.7

# Later entries.
smiles,CtBP-E1A blk,TRPML1 ag,PINK1 modulator,TRPML1 inh,Six1-Eya2 inh,D2 agonist
CCOC(=O)c1c(NC(=O)c2ccc(S(=O)(=O)N3CCOCC3)cc2)sc2c1CCN(C)C2,-14,-0.3,-3.2%[38.3 µM],-7,-4,-0.9
Cc1cc(NC(=O)CC(C)C)c(=O)n(Cc2ccccc2F)c1,.,-0.3,1.5%,9,-2,-1.1
Fc1ccc(F)c(CNc2ncnc3cc(Cl)ccc23)c1,5,5.4,0.3%,60,6,8.8
Cc1ccc(S(=O)(=O)/N=C(/Nc2ccc(F)cc2F)c2ccccc2)cc1,4,-1.0,2.3%,10,1,-3.7
Cc1ccc(NC(=O)CN(C)C(=O)CSc2n[nH]c(N)n2)cc1,6,2.3,5.9%[38.3 µM],-11,2,-1.8
COc1cccc(C(=O)NCCc2csc3nc(-c4ccccc4F)nn23)c1OC,.,1.3,1.4%,0,.,.
Cc1ccc(Cl)cc1NC(=O)C(=O)NCCc1sc(-c2ccc(F)cc2)nc1C,.,0.7,3.2%,0,.,.
CSc1nnc2c3c4c(sc3nc(-n3nc(C)cc3C)n12)COC(C)(C)C4,9,-0.4,-0.2%,10,-2,-0.2

# 3 structures from above, arranged by length of the SMILES, falling:
smiles,CtBP-E1A blk,TRPML1 ag,PINK1 modulator,TRPML1 inh,Six1-Eya2 inh,D2 agonist
Cc1ccc(S(=O)(=O)/N=C(/Nc2ccc(F)cc2F)c2ccccc2)cc1,4,-1.0,2.3%,10,1,-3.7
CN(Cc1ccc(N(C)C)cc1)C(=O)c1cc2ccccc2o1,?,-0.4,1.3%,-1,?,-0.5
COc1cc(OC)c2c(C)c(Cl)c(=O)oc2c1,1,-1.2,-0.3%,-8,-2,-4.5
